# Source: PubChem BioAssay
# PV pol inh: inhibitors of poliovirus RNA polymerase binding and polymerization | P03300 | poliovirus polymerase elongation, fluorescence polarization; active compounds read low | % elongation, % (compound at 16.7 µg/mL) | 150,000 compounds, 0.66% hits | AID 588519; in the data active = % elongation below about 90%; also: some results filed as inactive read as strong as hits
# Target sequence (P03300 1749-2209 limits assumed): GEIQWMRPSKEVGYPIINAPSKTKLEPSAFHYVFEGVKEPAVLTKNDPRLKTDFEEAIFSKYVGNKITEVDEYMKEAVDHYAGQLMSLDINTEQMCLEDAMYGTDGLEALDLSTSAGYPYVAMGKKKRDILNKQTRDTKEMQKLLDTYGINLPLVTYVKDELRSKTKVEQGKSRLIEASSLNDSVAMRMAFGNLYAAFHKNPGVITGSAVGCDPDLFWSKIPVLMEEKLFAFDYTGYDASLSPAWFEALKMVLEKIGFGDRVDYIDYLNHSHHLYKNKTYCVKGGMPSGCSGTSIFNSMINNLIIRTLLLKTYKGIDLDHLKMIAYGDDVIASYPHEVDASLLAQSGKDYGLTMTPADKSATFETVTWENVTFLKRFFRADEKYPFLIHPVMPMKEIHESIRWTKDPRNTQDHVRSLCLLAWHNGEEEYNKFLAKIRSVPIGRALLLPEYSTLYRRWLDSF
# Mtb MbtI inh: inhibitors of Mycobacterium tuberculosis siderophore enzyme MbtI | purified MbtI enzyme, fluorescence intensity read-out | 100,000 compounds, 0.89% hits | AID 493033 | inhibition, %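 (about 17 µg/mL by stock and volumes)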;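 active = above 50% in both replicates, above 80% if mildly self-fluorescent; inactive = the rest, strongly fluorescent compounds included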;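 also: 0% = mean of negative and 100% = mean of positive controls; one replicate is shown; some compounds called inactive have numbers as strong as hits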
# MenB inh: inhibitors of Mycobacterium tuberculosis MenB enzyme; P9WNP5; MenB enzyme assay, absorbance read-out; some hits fall short of the stated cut; inhibition, %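 (about 12 µg/mL by stock and volumes)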; 100,000 compounds, 0.43% hits;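 active = mean of two replicates above 30%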;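 also: 0% = no compound and 100% = wells with inactive enzyme; the first replicate is given; strong numbers were not always called active; inactives centre near -10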
# Target sequence (P9WNP5 whole entry, looked up): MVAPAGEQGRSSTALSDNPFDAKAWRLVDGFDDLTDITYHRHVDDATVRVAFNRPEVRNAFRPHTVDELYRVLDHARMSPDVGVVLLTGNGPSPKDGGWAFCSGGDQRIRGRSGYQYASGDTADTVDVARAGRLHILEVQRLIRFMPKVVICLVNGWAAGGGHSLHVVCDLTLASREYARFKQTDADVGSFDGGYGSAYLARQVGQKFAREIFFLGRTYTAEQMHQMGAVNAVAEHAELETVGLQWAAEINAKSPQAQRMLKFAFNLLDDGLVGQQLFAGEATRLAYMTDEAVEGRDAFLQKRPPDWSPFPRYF
# PV pol inh intensity: also measured in PV pol inh; calls as there; % elongation; measured here: total intensity read-out; formula for this scale not given here;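 total fluorescence in place of polarization; lower means less elongation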
# * hit, by the source's call; i = inactive; · = not tested or not shown.
SMILES,PV pol inh,PV pol inh intensity,Mtb MbtI inh,MenB inh
O=C(CSc1nc2ncc(Cl)cc2[nH]1)c1ccc(S(=O)(=O)N2CCCC2)cc1,·,·,5,7
Cc1cc(-c2nn(C)c(=O)c3ccccc23)cc(C)c1OC(=O)Nc1ccc(Cl)cc1,108,105,-9,-17
Clc1ccc2nc(N3CCCC3)nc(-c3ccccc3)c2c1,100,103,4,-11
Cn1c(=O)c2ncnnc2n(C)c1=O,63*,36*,-3,-22
O=C1NC2=C(C(=O)OC2)C(c2ccc(F)cc2)N1 (stereo not given),102,103,13,-3
CCCc1nnc(SCC(=O)c2ccccc2)o1,98,98,-4,6
CC1(C)CC(=O)C=C(Nc2ccc(N)cc2)C1,99,98,18,·
COC(=O)C1=CN(CCOC23CC4CC(CC(C4)C2)C3)C=C(C(=O)OC)C1c1cccc(F)c1,107,112,·,-14
COc1cc2c(C(=O)N3CCCCC3C)cn(C)c(=O)c2cc1OC (stereo not given),102,108,-11,6
Nc1nc(N)c2[nH]c(-c3ccccc3)nc2n1,68*,66*,99,-27
CC1(C)OC(=O)C(=Cc2cccn2-c2ccc(C(F)(F)F)cc2)C(=O)O1,97,103,-2,-42
COC(=O)CC1=C(C(=O)OC)C(c2cccnc2)C(C#N)=C(N)O1 (stereo not given),95,97,·,-2
Cn1cnnc1SCC(=O)c1ccc2c(c1)NC(=O)CO2,102,103,7,-8
CN(Cc1ccccc1)C(=O)CCc1ccccc1,106,106,·,-15
CCOC(=O)C1C(=O)NC(N2CCN(CC)CC2)=NC1C(C)C (stereo not given),103,100,-13,-37
COc1ccccc1C(=O)NCCCc1nc2ccccc2[nH]1,104,100,5,-17
CC12CN(C(=O)c3ccccc3)C3(C#N)CC1CCC23C (stereo not given),100,101,-15,-33
NC(=O)NCc1ccco1,104,102,13,15
CC1CC(CN)CC(CO)C1 (stereo not given),101,102,-22,10
CCOC(=O)c1c(C)[nH]c(C(=O)C(C)C)c1C,·,·,3,-21
CCNCc1cccs1,103,104,-13,-11
COc1ccccc1NC(=O)c1ccccc1NS(=O)(=O)N1CCCC1,104,108,·,-12
O=C(O)CC(NC(=O)Nc1ccccc1)c1ccsc1 (stereo not given),108,107,-16,-14
COc1ccc(C)cc1N=Cc1ccc(C)s1,102,104,-9,·
COC(=O)c1ccc(S(=O)(=O)Nc2ccc(N3CCOCC3)cc2)n1C,106,113,-10,-18
CN(C(=O)c1ccccc1)c1nc(-c2ccccc2)cs1,102,101,-8,9
CN1CCCC(n2nc(Cc3ccc(Cl)cc3)c3ccccc3c2=O)CC1 (stereo not given),98,102,-8,1
O=c1c2oc3ccccc3c2[nH]c(=S)n1CCc1ccccc1,104,105,2,-22
CCOC(=O)C1CCN(Cc2nc3ccccc3c(=O)n2-c2ccc(OCC)cc2)CC1,103,104,-8,-14
O=C(NCC1COc2ccccc2O1)c1ccc(NC(=O)C2CCCO2)cc1 (stereo not given),100,105,-13,-19
Cn1cc(S(=O)(=O)N2CCCC2)cc1C(=O)N1CCC(Cc2ccccc2)CC1,103,101,-6,-27
COc1cccc(-c2noc(C3CCCN(C(=O)Cc4ccccc4)C3)n2)c1 (stereo not given),103,101,-6,-7
COC(=O)c1c(C)[nH]c(C(=O)OCC(=O)Nc2ccccc2)c1C,105,108,-2,-32
O=C(NC(=O)c1ccc(F)c(Cl)c1)Nc1nnc(C(F)(F)F)s1,109,96,3,-12
CN1C=CC(=C2C(=O)c3ccccc3C2=O)C=C1,98,100,-9,-31
CC(C)(C)N(Cc1ccccc1)C(=O)C1COc2ccccc2O1 (stereo not given),102,102,-4,-74
NC(=O)Oc1cccc2ccccc12,102,111,·,-3
Cc1ccc(NC(=O)CC2S/C(=N/N=C/c3cccs3)NC2=O)cc1 (stereo not given),97,103,-4,2
COc1cc2nc(SCC(=O)N(C)C3CCCCC3)n3nc(C)nc3c2cc1OC,101,101,29,-14
CC(C)c1nnc(NC(=O)C(C(C)C)N2C(=O)c3ccccc3C2=O)s1 (stereo not given),100,101,4,6
CCc1ccc(NC(=O)N2CCOc3ccccc32)cc1,103,102,-8,-8
Cc1cc(=O)[nH]c(SCc2cccc3cccnc23)n1,100,100,6,-3
CN(C)/C=C/C(=O)c1cc(-c2ccccc2)no1,101,99,15,-52
N#CCc1cccc(N)c1,112,114,-16,-19
CC(C)c1nc(-c2c(N)n(C)c(=O)n(C)c2=O)sc1C(=O)C(C)(C)C,102,103,-8,-4
CCCC1CCC(c2ccc(OC(=O)c3ccco3)cc2)CC1 (stereo not given),104,108,-5,-27
CCOC(=O)c1cnc2c(c(C)nn2C)c1NCc1ccco1,105,97,10,10
Cc1ccc(C(C)C)c(OCCCCn2ccnc2)c1,98,99,-10,-11
Cc1cccc(NS(=O)(=O)c2cccc(C(=O)OC(C)C(N)=O)c2)c1 (stereo not given),103,102,-3,-10
c1csc(-c2noc(CCCN3CCNCC3)n2)c1,103,107,1,-15

# Other results
SMILES,PV pol inh,PV pol inh intensity,Mtb MbtI inh,MenB inh
COc1ccc(C2(C(=O)NCC3CCCO3)CCOCC2)cc1 (stereo not given),101,101,-2,-8
Cc1ccc2oc(=O)c(CCC(=O)O)nc2c1,99,97,·,10
CC(=O)N(Cc1cccc(Br)c1)c1ccc2oc(-c3ccc(C)cc3)nc2c1,101,101,i,-30
O=C(COc1ccccc1O)NCCO,101,105,13,-10
CCS(=O)(=O)N1CCC(C(=O)N2CCN(Cc3ccc4c(c3)OCO4)CC2)CC1,103,104,-3,7
O=C(Cn1ncc2c1-c1ccccc1OC2)N1CCC2(CC1)OCCO2,101,101,-7,-10
COCCNC(=O)Nc1ccc2c(c1)nc(C)n2C,103,103,2,-18
C=CCN1C(=O)c2ccc(C(=O)OCC(=O)Nc3ccccc3OC)cc2C1=O,103,107,-13,-18
CNC(=O)NCc1c(N(C)C)cccc1N(C)C,106,110,-14,8
CN1CCN(CC(=O)N/N=C/c2ccc(F)c(F)c2)CC1,98,98,-11,-13

# Full records, quoted from the list. Screens in order: PV pol inh, PV pol inh intensity, Mtb MbtI inh, MenB inh
# Entry for CN1CCN(CC(=O)N/N=C/c2ccc(F)c(F)c2)CC1 : 98, 98, -11, -13
# Entry for C=CCN1C(=O)c2ccc(C(=O)OCC(=O)Nc3ccccc3OC)cc2C1=O : 103, 107, -13, -18
# Entry for CNC(=O)NCc1c(N(C)C)cccc1N(C)C : 106, 110, -14, 8
# Entry for CC(=O)N(Cc1cccc(Br)c1)c1ccc2oc(-c3ccc(C)cc3)nc2c1 : 101, 101, i, -30
# Entry for CCS(=O)(=O)N1CCC(C(=O)N2CCN(Cc3ccc4c(c3)OCO4)CC2)CC1 : 103, 104, -3, 7

# (continued)
SMILES,PV pol inh,PV pol inh intensity,Mtb MbtI inh,MenB inh
Cc1ccc(-n2c(O)c(C=NCc3ccncc3)c3ccccc3c2=O)cc1C,102,102,-5,·
c1ccc2sc(CSC3=NCCN3)nc2c1,103,111,52,-3
O=C(CNc1ccc(Br)cc1)N/N=C/c1ccco1,106,101,2,-22
CC(C)c1ccc(NC(=O)COC(=O)C2CCCCC2)cc1,101,95,-14,·
COC(=O)c1cn(-c2ccccc2)nc1-c1cccnc1,102,99,-6,0
Cc1ccc(-c2[nH]c(-c3ccc(F)cc3)nc2SCC(=O)NCC2CCCO2)cc1 (stereo not given),101,104,-44,4
CC(C)(C)NC(=O)NC(=O)Cn1nnc(-c2ccccc2)n1,96,105,-4,-10
CCOC(=O)c1cc(S(=O)(=O)NC(C)CC)cn1C (stereo not given),101,102,2,1
Cc1ccc(C(=O)c2cnc3cc4c(cc3c2N2CCCC2)OCO4)cc1C,101,104,3,-4
CC1=C(c2ccccn2)Oc2ccccc2O1,101,101,-12,·
CN(c1ccccc1)S(=O)(=O)Cc1ccccc1,105,106,·,7
CCOC(=O)c1c(O)cc(C)cc1Nc1ccccc1,102,109,8,-5
CNCC(=O)N(C)c1c(N)n(Cc2ccccc2)c(=O)[nH]c1=O,104,111,-10,-14
O=C(OCc1nnc(-c2cc3c(s2)CCCC3)o1)c1cccc(CN2C(=O)c3ccccc3C2=O)c1,106,108,5,-2
Cc1cc(N/C=C2/C(=O)c3sccc3N(Cc3cccc(F)c3)S2(=O)=O)no1,103,98,62,-53
Cn1cnc2c(=O)oc3ccc(S(=O)(=O)NC4CCCC4)cc3c21,101,104,2,2
CCS(=O)(=O)N1CCN(C(=O)c2ccccc2Cl)CC1,104,103,-9,-46
Cc1nn(-c2cccc(Cl)c2)nc1C(=O)N(C)CC(=O)NCc1ccco1,101,95,27,-18
O=C(CSc1nc(-c2ccccc2)c(-c2ccccc2)[nH]1)NCc1ccco1,101,105,-453,-6
Cc1ccc(-c2onc3ccc(C4(C)OCCO4)cc23)cc1,102,100,1,-11
O=C(c1cc2c(s1)CCC2)N1C(=O)c2ccccc2S1(=O)=O,104,102,10,15
Cc1c(Cl)cccc1N=C1SCC(=O)N1Cc1ccco1,105,104,-5,-16
CC1=CC(=C(C#N)C#N)C=C(C)N1Cc1cccnc1,103,108,12,0
O=CNCc1ccccc1OC(F)F,98,98,10,2
N#Cc1ccc(COC(=O)C2CCCCC2)cc1,105,105,9,-5
O=C(Nc1ncnc2sc3c(c12)CCC3)c1cccs1,104,111,·,-11
COc1ccc(C2CC3(OCCO3)C3(CCCCC3)O2)cc1 (stereo not given),104,112,·,-11
C=C(C)C1Cc2cc3ccc(=O)oc3cc2O1 (stereo not given),104,108,·,-18
COC(=O)c1ccc(COC(=O)C2CSC3(c4ccc(Br)cc4)CCC(=O)N23)o1 (stereo not given),101,106,6,-10
Cc1ccc(C)c(CSc2ncccc2C(=O)O)c1,98,102,-17,-4

# Quoted from the results shown for reference:
SMILES,PV pol inh,PV pol inh intensity,Mtb MbtI inh,MenB inh
CC(C)(C)NC(=O)NC(=O)Cn1nnc(-c2ccccc2)n1,96,105,-4,-10
CCOC(=O)c1cc(S(=O)(=O)NC(C)CC)cn1C (stereo not given),101,102,2,1
Cc1ccc(C(=O)c2cnc3cc4c(cc3c2N2CCCC2)OCO4)cc1C,101,104,3,-4
CC1=C(c2ccccn2)Oc2ccccc2O1,101,101,-12,·
CN(c1ccccc1)S(=O)(=O)Cc1ccccc1,105,106,·,7
CCOC(=O)c1c(O)cc(C)cc1Nc1ccccc1,102,109,8,-5
CNCC(=O)N(C)c1c(N)n(Cc2ccccc2)c(=O)[nH]c1=O,104,111,-10,-14
O=C(OCc1nnc(-c2cc3c(s2)CCCC3)o1)c1cccc(CN2C(=O)c3ccccc3C2=O)c1,106,108,5,-2
Cc1cc(N/C=C2/C(=O)c3sccc3N(Cc3cccc(F)c3)S2(=O)=O)no1,103,98,62,-53
Cn1cnc2c(=O)oc3ccc(S(=O)(=O)NC4CCCC4)cc3c21,101,104,2,2
CCS(=O)(=O)N1CCN(C(=O)c2ccccc2Cl)CC1,104,103,-9,-46
Cc1nn(-c2cccc(Cl)c2)nc1C(=O)N(C)CC(=O)NCc1ccco1,101,95,27,-18
O=C(CSc1nc(-c2ccccc2)c(-c2ccccc2)[nH]1)NCc1ccco1,101,105,-453,-6
Cc1ccc(-c2onc3ccc(C4(C)OCCO4)cc23)cc1,102,100,1,-11
O=C(c1cc2c(s1)CCC2)N1C(=O)c2ccccc2S1(=O)=O,104,102,10,15
Cc1c(Cl)cccc1N=C1SCC(=O)N1Cc1ccco1,105,104,-5,-16
CC1=CC(=C(C#N)C#N)C=C(C)N1Cc1cccnc1,103,108,12,0
O=CNCc1ccccc1OC(F)F,98,98,10,2
N#Cc1ccc(COC(=O)C2CCCCC2)cc1,105,105,9,-5
O=C(Nc1ncnc2sc3c(c12)CCC3)c1cccs1,104,111,·,-11
COc1ccc(C2CC3(OCCO3)C3(CCCCC3)O2)cc1 (stereo not given),104,112,·,-11
C=C(C)C1Cc2cc3ccc(=O)oc3cc2O1 (stereo not given),104,108,·,-18
COC(=O)c1ccc(COC(=O)C2CSC3(c4ccc(Br)cc4)CCC(=O)N23)o1 (stereo not given),101,106,6,-10
Cc1ccc(C)c(CSc2ncccc2C(=O)O)c1,98,102,-17,-4

# (continued)
SMILES,PV pol inh,PV pol inh intensity,Mtb MbtI inh,MenB inh
COc1ccc(Br)cc1/C=C1\C(=O)NC(=O)N(CCC2=CCCCC2)C1=O,99,104,·,-20
CC(SC1=NCCS1)C(=O)Nc1nnc(-c2ccc(Cl)cc2)s1 (stereo not given),100,102,-20,-9
CCOC(=O)C1CCCN(C(=O)c2cncc(Br)c2)C1 (stereo not given),101,100,-4,·
CCNC12CC3CC(CC(C3)C1)C2,103,104,-1,·
Cc1ccc(C)c(OCCC(=O)N=c2sccn2C)c1,102,106,2,-5
COc1ccc(NC(=O)CSC(=O)c2ccccc2)cc1Cl,99,94,50,·
Cc1cnc(CC#N)s1,105,115,10,11
CCNc1nc(NC(C)C)nc(OCCNC(=O)COc2ccc(Cl)cc2C)n1,104,100,-7,-28
NC(=O)COc1ccc(/C=N/NS(=O)(=O)c2ccccc2)cc1,99,105,11,-3
COc1ccc2[nH]cc(CCNC(=O)C3CC3)c2c1,103,100,36,-18
O=C(CCCN1C(=O)c2ccccc2C1=O)Nc1ccccc1,103,110,15,-18
Cc1ccc(F)cc1N1C(=O)COCC1=O,95,105,-7,5
COc1ccc2c(ccc(/C=C3\Sc4ccccc4N3C)[n+]2C)c1,103,141,-4,-3
CCOC(=O)CSC1=Nc2ccccc2C2=NC(CC(=O)NCc3ccc(OC)cc3)C(=O)N12 (stereo not given),99,100,27,-17
N#Cc1ccc(/C=N/n2cnnc2)cc1,99,98,1,-5
